High-throughput results deposited in PubChem BioAssay by ICCB-Longwood Screening Facility, Harvard Medical School.
HCMV NEC inh: inhibitors of HCMV UL50-UL53 nuclear egress complex interaction | HTRF UL50-UL53 interaction, normalized percent inhibition | inhibition, % (no concentration beside the values) | 190,000 tested, 0.15% active | AID 1918969;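 active = both replicates at 50% or more, plus weaker picks with an unusually low signal ratio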;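 also: stock transfer was 100 nL into about 20 µL; 0% = negative control wells and 100% = wells with untagged competitor protein; inactives centre near -12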
GIV-Gai inh: blocks GIV peptide binding to rat Galpha-i3; percent of control (FP), % (test concentration not listed); P08753; 210,000 tested, 0.42% active; Galpha-i3/FITC-GIV peptide fluorescence polarization, 90 min; hits give low values; scaled: aluminum fluoride 0%, vehicle 100%;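 active = replicate mean at 85% of control or lower, very high polarization wells dropped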;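 also: wells of about 15 µL received 100 nL stock; the first replicate is given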
Target sequence (P08753 whole entry, looked up): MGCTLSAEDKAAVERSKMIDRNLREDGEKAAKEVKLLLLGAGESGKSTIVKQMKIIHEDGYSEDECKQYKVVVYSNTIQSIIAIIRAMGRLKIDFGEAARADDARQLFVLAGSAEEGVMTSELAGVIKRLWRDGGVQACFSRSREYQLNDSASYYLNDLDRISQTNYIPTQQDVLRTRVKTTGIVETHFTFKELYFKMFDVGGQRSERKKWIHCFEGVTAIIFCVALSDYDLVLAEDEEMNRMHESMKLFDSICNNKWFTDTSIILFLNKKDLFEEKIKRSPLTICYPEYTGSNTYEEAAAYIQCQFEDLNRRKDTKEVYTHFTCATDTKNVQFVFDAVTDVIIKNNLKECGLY
Sa growth inh: blocks Staphylococcus aureus growth; relative growth, % (test concentration not listed); S. aureus RN4220 growth, OD600, 20 h, 42 °C; hits give low values; AID 720641; 170,000 tested, 0.53% active;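 active = growth at 42 °C up to 50% and 20 or more points under that at 30 °C, or under 10% at both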;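 also: 300 nL library stock went into each well; scaled to the means of positive and negative controls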
Sa growth inh second temp: second read-out of Sa growth inh, no call of its own (marks repeat the call); relative growth, %; measured here: growth at 30 °C;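 optical density after 20 h as mean of two plates; 100% = untreated growth and lower means inhibition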
Numbers without * were called inactive; nt = no result given. Hits appear at their usual frequency (roughly 0.79% active in at least one column).

| smiles | HCMV NEC inh | GIV-Gai inh | Sa growth inh | Sa growth inh second temp |
| --- | --- | --- | --- | --- |
| COc1ccc(C2CC(=O)C3=C(C2)Nc2ccccc2NC3c2ccccc2Br)cc1OC (stereo not given) | -16 | 104 | nt | nt |
| COc1cccc(C2N(Cc3ccccc3)C(=O)C2(F)F)c1OC (stereo not given) | 22 | nt | 103 | 108 |
| Cn1c(SCC(=O)Nc2cc(C(C)(C)C)nn2-c2ccccc2)nnc1C1CC1 | 10 | nt | 115 | 107 |
| O=C(NCc1cccc(Cl)c1)C1CCN(C(=O)c2sccc2-n2cccc2)CC1 | -31 | 99 | 102 | 88 |
| CC(C1CC2CCC1C2)n1c(SCC(=O)c2ccc(Cl)s2)nnc1-c1cccs1 (stereo not given) | -17 | nt | 95 | 84 |
| CNC(=O)c1ccc(-c2nc(CN3CCN(C(=O)Nc4ccc5c(c4)OCCO5)CC3)c(C)o2)cc1 | -38 | 107 | nt | nt |
| O=C(CCC(=O)N1CCc2cc(S(=O)(=O)N3CCOCC3)ccc21)N1CCCCC1 | -34 | 99 | nt | nt |
| Cc1noc(C)c1S(=O)(=O)N(CC(=O)Nc1ccc(F)cc1F)c1ccc(C(C)C)cc1 | -5 | 106 | 97 | 88 |
| O=C(C1=NNC2C(=O)N(c3ccccc3)C(=O)C12)c1cccnc1 (stereo not given) | -6 | nt | 101 | 82 |
| C=CCN[C@H]1CS(=O)(=O)C[C@@H]1S(=O)(=O)c1ccc(OC)cc1 | -9 | 99 | nt | nt |
| CC(O)C(=O)N/N=C/c1ccccc1 (stereo not given) | 2 | 106 | 90 | 118 |
| Cc1ccc2c(c1)c1c(n2CC(O)CO)C(=O)CCC1 (stereo not given) | -62 | 100 | 100 | 94 |
| CCOc1ccc(-c2c(C)nn3c(C)c(C(=O)NCc4ccc(Cl)cc4)cnc23)cc1OCC | nt | 109 | 95 | 102 |
| Nc1cc(=O)[nH]c(=O)n1C1CC1 | -22 | nt | 85 | 82 |
| FC(F)(F)c1ccc(-c2noc(C3CCCCC3)n2)cc1 | -12 | 100 | 111 | 108 |
| Cn1c(=O)n(C)c2cc(CNC(C)(C)CC(C)(C)C)ccc21 | -7 | 105 | nt | nt |
| O=C(CN1CCSc2ccccc21)Nc1ccc(N2CCOCC2)cc1 | -32 | nt | 91 | 89 |
| Cc1ccc(C)c(OC(=O)C2CC(=O)N(c3ccc4c(c3)OCCO4)C2)c1C (stereo not given) | -21 | nt | 112 | 99 |
| O=C(NCc1ccccc1Cl)c1ccc2c(Cl)c3c(nc2c1)CCCC3 | nt | 98 | 95 | 89 |
| CN(C)C(=O)COC(=O)c1ccc(C#N)cc1 | -13 | nt | 89 | 89 |

The list goes on; the last 7 above are carried over.
| smiles | HCMV NEC inh | GIV-Gai inh | Sa growth inh | Sa growth inh second temp |
| --- | --- | --- | --- | --- |
| Nc1cc(=O)[nH]c(=O)n1C1CC1 | -22 | nt | 85 | 82 |
| FC(F)(F)c1ccc(-c2noc(C3CCCCC3)n2)cc1 | -12 | 100 | 111 | 108 |
| Cn1c(=O)n(C)c2cc(CNC(C)(C)CC(C)(C)C)ccc21 | -7 | 105 | nt | nt |
| O=C(CN1CCSc2ccccc21)Nc1ccc(N2CCOCC2)cc1 | -32 | nt | 91 | 89 |
| Cc1ccc(C)c(OC(=O)C2CC(=O)N(c3ccc4c(c3)OCCO4)C2)c1C (stereo not given) | -21 | nt | 112 | 99 |
| O=C(NCc1ccccc1Cl)c1ccc2c(Cl)c3c(nc2c1)CCCC3 | nt | 98 | 95 | 89 |
| CN(C)C(=O)COC(=O)c1ccc(C#N)cc1 | -13 | nt | 89 | 89 |
| CCN(CC)S(=O)(=O)c1ccc(-c2nc(C#N)c(N3CCCC3)o2)cc1 | -16 | 99 | nt | nt |
| Cn1nc(OC(=O)Nc2ccccc2)cc1C(F)(F)F | -10 | 97 | nt | nt |
| CSc1ccc(CCNC(=O)c2cnn(-c3ccccc3)c2-n2cccc2)cc1 | 1 | 99 | 91 | 92 |
| c1nc(Oc2ccc(-c3nnco3)cc2)c2c3c(sc2n1)CCCC3 | -6 | nt | 86 | 85 |
| COc1cc(C=O)ccc1Oc1nc(N2CCOCC2)nc(N2CCOCC2)n1 | -21 | 111 | nt | nt |
| O=C(c1ccc(Br)cc1)N(Cc1ccco1)c1ccccn1 | -27 | 106 | 96 | 87 |
| Cc1cc(C)nc(N/C=C(\C#N)S(=O)(=O)c2ccc(Cl)cc2)n1 | 2 | 99 | 92 | 83 |
| CCOC(=O)c1c(C)noc1CP(=O)(c1ccccc1)c1ccccc1 | -27 | nt | 82 | 89 |
| Cc1c(C(=O)N2CCOCC2)sc2nc(-c3ccccc3)cn12 | -23 | 105 | nt | nt |
| C=CCOc1ccc(NC(=O)c2ccc(C)cc2)cc1 | -20 | 106 | 100 | 96 |
| CC(C)NC(=O)N1CCn2cccc2C1C(C)C (stereo not given) | 0 | 109 | 107 | 95 |
| Cc1ccc(-c2coc3cc4oc(=O)c5c(c4cc23)CCC5)cc1 | -18 | 101 | 100 | 85 |
| Cc1ccc(CCNC(=O)c2ccc(CS(=O)(=O)c3ccc(Cl)cc3)o2)cc1 | nt | 106 | 101 | 102 |
| CC(C)NC(=O)N1CCCC(c2cccc(C(=O)NC3CCCC3)c2)C1 (stereo not given) | -13 | 108 | nt | nt |
| CCCCn1c(SCC(=O)NCc2cccs2)nnc1C(CC)N(C)C (stereo not given) | 0 | nt | 106 | 93 |
| CCc1ccc(O)c(C(=O)c2cnc3onc(C(C)C)c3c2)c1 | -11 | nt | 129 | 81 |
| CCN(CC)C(=O)N1c2ccccc2Sc2ccccc21 | -20 | 98 | 94 | 92 |
| CC(Cn1c(=S)[nH]c2c(oc3ccccc32)c1=O)c1ccccc1 (stereo not given) | -3 | 102 | 107 | 88 |
| CC(C)c1cc(CN2CCN(CCC#N)CC2)cc(C(C)C)c1O | -12 | 99 | 99 | 87 |
| CC(C)(C)OC(=O)N1CCC(c2c(C(=O)NCCN3CCOCC3)cnn2-c2ccc(F)cc2F)CC1 | nt | 105 | 97 | 92 |
| COc1cc(OC)c(NC(=O)N2CCC(CN3CCc4ccccc4C3)CC2)cc1Cl | nt | 103 | 99 | 89 |
| CCC(=O)N1CCc2cc(S(=O)(=O)NC(C(=O)NCCc3ccc(Cl)cc3)C(C)C)ccc21 (stereo not given) | -6 | 101 | 104 | 94 |
| COc1ccc(C2CC(=O)C3=C(C2)NC(C)=C(C(=O)OCCOc2ccccc2)C3c2ccc3c(c2)OCO3)cc1 (stereo not given) | 6 | 108 | nt | nt |
| O=C(NCCS(=O)(=O)N1CCN(c2ccccc2)CC1)C1c2ccccc2Oc2ccccc21 | -6 | 107 | nt | nt |
| OC(CNC1CCc2ccccc21)COc1ccc(-c2csnn2)cc1 (stereo not given) | -13 | 101 | 86 | 79 |
| O=C(CNc1ccccc1)N/N=C/c1ccc(O)cc1 | -32 | nt | 78 | 92 |
| Cc1cc(SCC(=O)NCc2ccc(Cl)cc2)nc(=O)[nH]1 | nt | 106 | 138 | 89 |
| Cc1cccc(N2CCN(C(=O)COc3ccc(C#N)cc3)CC2)c1C | -9 | nt | 116 | 93 |
| O=C1c2cccnc2C(=O)N1Cc1ccc(S(=O)(=O)Nc2ccc(F)cc2)s1 | -4 | 106 | 102 | 99 |
| C=CCc1ccc(OCCn2c(CN3CCCC3)nc3ccccc32)c(OC)c1 | 18 | 105 | nt | nt |
| COc1ccc(CCN(C)CCC(=O)Nc2c(C)cc(C)cc2C)cc1OC | -14 | nt | 94 | 87 |
| CCCN(CCC)C(=O)/C=C/c1ccc(OC)c(OC)c1 | -51 | nt | 105 | 79 |
| COc1cc(CN(C(=O)c2ccc(C)cc2)C2CCS(=O)(=O)C2)cc(OC)c1OC (stereo not given) | -3 | 104 | 111 | 91 |
| Cc1nc2ccccc2c(=O)n1Cc1noc(C2CC(=O)N(C3CCCC3)C2)n1 (stereo not given) | -42 | 102 | nt | nt |
| O=C(Nc1ccc(F)c(Cl)c1)c1cc(S(=O)(=O)N2CCC3(CC2)OCCO3)ccc1F | -25 | 105 | 97 | 88 |
| COc1ccc(C2CC(=O)Nc3c2c(=O)[nH]c2nc4ccccc4n32)cc1 (stereo not given) | -6 | 106 | 108 | 88 |
| COc1ccc(CCNC(=O)c2cc(-c3ccco3)on2)cc1OC | -12 | 100 | 99 | 76 |
| Cc1ccccc1Nc1c(-c2ccsc2)nc2c[n+](CC(N)=O)ccn12 | nt | 110 | 142 | 86 |
| CCOC(=O)c1c(C=O)oc2c(C)cc(OC(=O)c3cccc(OC)c3)c(Br)c12 | -8 | 99 | nt | nt |
| CCN(CC)c1nc(-c2ccccc2)c2cc(Cl)ccc2n1 | -15 | nt | 97 | 92 |

In the list so far, these have a tert-butyl group.
| smiles | HCMV NEC inh | GIV-Gai inh | Sa growth inh | Sa growth inh second temp |
| --- | --- | --- | --- | --- |
| Cn1c(SCC(=O)Nc2cc(C(C)(C)C)nn2-c2ccccc2)nnc1C1CC1 | 10 | nt | 115 | 107 |
| Cn1c(=O)n(C)c2cc(CNC(C)(C)CC(C)(C)C)ccc21 | -7 | 105 | nt | nt |
| CC(C)(C)OC(=O)N1CCC(c2c(C(=O)NCCN3CCOCC3)cnn2-c2ccc(F)cc2F)CC1 | nt | 105 | 97 | 92 |

Compounds shown so far that contain an NH in an aromatic ring:
| smiles | HCMV NEC inh | GIV-Gai inh | Sa growth inh | Sa growth inh second temp |
| --- | --- | --- | --- | --- |
| Nc1cc(=O)[nH]c(=O)n1C1CC1 | -22 | nt | 85 | 82 |
| CC(Cn1c(=S)[nH]c2c(oc3ccccc32)c1=O)c1ccccc1 (stereo not given) | -3 | 102 | 107 | 88 |
| Cc1cc(SCC(=O)NCc2ccc(Cl)cc2)nc(=O)[nH]1 | nt | 106 | 138 | 89 |
| COc1ccc(C2CC(=O)Nc3c2c(=O)[nH]c2nc4ccccc4n32)cc1 (stereo not given) | -6 | 106 | 108 | 88 |

Next structures follow:
| smiles | HCMV NEC inh | GIV-Gai inh | Sa growth inh | Sa growth inh second temp |
| --- | --- | --- | --- | --- |
| Cn1cc(CC(=O)NCCN2CCN(Cc3ccccc3)CC2)c2ccccc21 | 5 | 102 | 114 | 95 |
| O=c1[nH]n(-c2ccccc2)c(=O)n1Cc1ccccc1F | -29 | nt | 85 | 92 |
| CCOC(=O)c1c(C)[nH]c(C(=O)N2CCC(CC(=O)N3CCN(c4ccccc4)CC3)CC2)c1C | -14 | 110 | nt | nt |
| CC(=O)c1ccc(NC(=O)c2sc(-n3nc(C)c(Cc4ccc5c(c4)OCO5)c3C)nc2C)cc1 | 0 | 103 | 103 | 95 |
| CCc1c(C)sc(NC(=O)/C=C/c2ccc(F)cc2)c1C(=O)OC | -20 | nt | 103 | 95 |
| O=c1cnnc(SCc2ccccc2)[nH]1 | -10 | 100 | 81 | 78 |
| Cc1cc(C)c2oc(-c3cc(NC(=O)CC(C)C)ccc3Cl)nc2c1 | -7 | 104 | 89 | 93 |
| COc1cc(OC)cc(-c2nnc(NC(=O)c3ccc(S(=O)(=O)N4COCC4(C)C)cc3)o2)c1 | 6 | 104 | 1.0* | 0.8* |
| COC(=O)CSc1nnc(-c2ccc(NC(C)=O)cc2)o1 | nt | 100 | 85 | 80 |
| COc1ccc(-c2n[nH]c(=S)[nH]c2=O)cc1 | -27 | nt | 60 | 66 |
| CN1C(=O)/C(=C/C=C2\SCCN2C)OC1=S | -62 | 101 | 98 | 95 |
| Cc1cc(C(F)(F)F)nn1CCCNC(=O)c1cccs1 | -10 | 110 | 102 | 102 |
| COc1ccc(OC)c(N2C(=O)c3cc4occc4n3CC2(C)C(=O)NC2CCC(C)CC2)c1 (stereo not given) | -21 | 107 | nt | nt |
| N#Cc1ccccc1OCC(=O)Oc1ccc2c(c1)OCO2 | -35 | nt | 78 | 96 |
| C=C(C)c1cccc(C(C)(C)NC(=O)Nc2ccc(C)cn2)c1 | 1 | nt | 124 | 93 |
| O=c1[nH]c2ccccc2n2c(=S)[nH]nc12 | 4 | nt | 89 | 93 |
| CCN(c1ccccc1)S(=O)(=O)c1ccc(NCc2cccnc2)nc1 | -15 | nt | 87 | 85 |
| Cn1c(C(=O)NCCC2=CCCCC2)cc2c(=O)oc3ccccc3c21 | -23 | 118 | nt | nt |
| Cc1ccc2c(c1)-c1nc(-c3ccc4c(c3)NC(=O)CO4)cc(-c3ccc(F)cc3)c1CO2 | -4 | 107 | 102 | 87 |
| Cc1cccc(COC(=O)Nc2ccc(N3CCCCC3)cc2)c1 | -7 | 104 | 98 | 99 |
| CC(C(=O)N(C(C)C)C(C)C)N1CCN(C)CC1 (stereo not given) | 9 | 103 | 106 | 113 |
| O=C(Nc1ccc(C(=O)NCC2CCCO2)cc1)C1=CSCCO1 (stereo not given) | -22 | 101 | 98 | 93 |
| O=C1CN(C(=O)CSc2nc(-c3cccs3)cn2-c2ccccc2)c2ccccc2N1 | -28 | nt | 73 | 93 |
| CCOC(=O)C1CCN(c2cc3c(cc2NC(=O)c2ccccc2Cl)n(C)c(=O)n3C)CC1 | 1 | 104 | 97 | 91 |
| C=CCn1c(C)cc(C(=O)CSc2nnc(N)s2)c1C | -9 | nt | 100 | 97 |

3 compounds from above, ordered by heavy-atom count, ascending:
| smiles | HCMV NEC inh | GIV-Gai inh | Sa growth inh | Sa growth inh second temp |
| --- | --- | --- | --- | --- |
| CC(C(=O)N(C(C)C)C(C)C)N1CCN(C)CC1 (stereo not given) | 9 | 103 | 106 | 113 |
| C=CCn1c(C)cc(C(=O)CSc2nnc(N)s2)c1C | -9 | nt | 100 | 97 |
| Cc1cccc(COC(=O)Nc2ccc(N3CCCCC3)cc2)c1 | -7 | 104 | 98 | 99 |
